Arbovirus inh = antivirals against arbovirus infection | arbovirus infection cell-based antiviral screen | inhibition, % at 10 µM | hit rate 0.37% among 200,000;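 active = inhibition from about 30%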;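 also: bluetongue infection of BSR cells; cell survival read as ATP light after 72 h; 0% = infected wells without compound and 100% = uninfected wells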
YopH PTP inh = YopH (Yersinia) phosphatase inhibition; AID 898; inhibition, %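 (about 10 µM by stock and volumes)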; fluorescence Ex485/Em525; hit rate 0.16% among 140,000;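 active = inhibition of 50% or more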;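 also: controls were vehicle for no effect and minimum signal wells for full effect; inactives centre near -20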
Mtb bLac sens = beta-lactam sensitization of Mtb H37Rv; M. tuberculosis H37Rv growth with meropenem, percent inhibition; hits of this screen are not shown here; inhibition, % at 25 µM; hit rate 0.27% among 330,000; AID 434955;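 active = about 74% or more and at least 40 points above the plate without the antibiotic, then above 30% in a dose series; inconclusive = first-round hits that could not be retested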;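 also: growth measured after seven days incubation then overnight dye step; 0% = bacteria only wells and 100% = bacteria with antibiotic; twin plates without the antibiotic show which effects depend on it; some results filed as inactive read as strong as hits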
RecA intein inh = inhibitors of M. tuberculosis RecA intein splicing. hit rate 0.75% among 290,000. inhibition, %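 (about 9 µM by stock and volumes)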. cell-free RecA intein splicing, fluorescence. AID 2221; in the data active = inhibition above about 30%; inconclusive = no clear call, values can overlap the other calls;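 also: 0% = vehicle wells and 100% = reference inhibitor control wells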
Target sequence (P9WHJ3 whole entry, looked up): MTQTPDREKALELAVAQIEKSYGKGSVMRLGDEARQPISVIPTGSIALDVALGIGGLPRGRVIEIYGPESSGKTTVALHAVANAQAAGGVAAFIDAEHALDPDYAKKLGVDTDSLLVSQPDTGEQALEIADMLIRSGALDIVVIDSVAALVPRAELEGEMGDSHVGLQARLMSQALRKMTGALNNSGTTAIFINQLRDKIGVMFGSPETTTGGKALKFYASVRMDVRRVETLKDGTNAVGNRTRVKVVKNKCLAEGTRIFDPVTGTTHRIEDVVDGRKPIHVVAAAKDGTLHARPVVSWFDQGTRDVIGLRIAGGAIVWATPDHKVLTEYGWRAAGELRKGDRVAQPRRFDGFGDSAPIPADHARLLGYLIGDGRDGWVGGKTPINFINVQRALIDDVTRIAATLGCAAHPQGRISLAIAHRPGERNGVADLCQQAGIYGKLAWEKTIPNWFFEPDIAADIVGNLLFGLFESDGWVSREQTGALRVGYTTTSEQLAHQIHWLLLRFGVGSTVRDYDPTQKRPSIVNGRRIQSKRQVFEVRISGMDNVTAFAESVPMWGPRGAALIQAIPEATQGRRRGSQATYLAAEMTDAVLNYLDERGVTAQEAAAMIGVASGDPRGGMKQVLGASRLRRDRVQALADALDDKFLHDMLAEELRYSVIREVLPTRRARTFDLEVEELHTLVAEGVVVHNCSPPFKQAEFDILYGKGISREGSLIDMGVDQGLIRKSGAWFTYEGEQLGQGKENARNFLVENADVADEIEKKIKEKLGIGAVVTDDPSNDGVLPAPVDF
Mtb H37Rv = M. tuberculosis H37Rv growth inhibitors, H37Rv strain (AID 1626); M. tuberculosis H37Rv growth inhibition; higher % means a stronger effect; inhibition, % at 10 µM, or IC50 in µM where a hit was titrated; hit rate 0.95% among 220,000;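 active = confirmed in a dose series; inconclusive = inhibition above 80% but not taken into the dose series; inactive = below 80% or under 30% at every dose of the series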;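 also: bacteria incubated seven days before Alamar blue readout; 0% = bacteria only wells and 100% = bacteria with antibiotic wells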
Arbovirus inh repeat = second read-out of Arbovirus inh, no call of its own (marks repeat the call); inhibition, %; measured here: 10K subset replicate screen; many hits read low in the repeat;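 first of two repeat runs on a subset; 0% = infected and 100% = uninfected wells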
Numbers without * were called inactive; ? = inconclusive; . = no result given. These rows are one share of the data. The share of hits here may be higher or lower than overall.

SMILES	Arbovirus inh	YopH PTP inh	Mtb bLac sens	RecA intein inh	Mtb H37Rv	others
CCCn1c(C(CO)Nc2nc(C)cs2)nc2ccccc21 (stereo not given)	.	.	-1.6	-0.3	.
CC(C)OC(=O)CSc1nnc(COc2ccc([N+](=O)[O-])cc2)n1C	13.7	.	-3.7	0.4	1.6%
O=C1c2cccnc2C(Nc2ccc(F)c(Cl)c2)N1Cc1cccs1 (stereo not given)	-2.7	.	3.3	7.4	10.1%
COc1ccc(C(=O)NCC(=O)OCc2ccc(F)cc2)cc1	-3.8	.	1.9	-1.4	-9.3%
O=C(O)Cn1c(=O)n(Cc2ccccc2)c2ccccc21	.	.	-13.7	-2.6	.
CC(C)(C)C1CCC(OCC(O)CN2CCN(c3ccccn3)CC2)CC1 (stereo not given)	-23.2	.	.	10.3	5.4%
COc1ccc(N(C(=O)c2cnccn2)C(C(=O)NC2CCCCC2)c2ccc(Cl)cc2)cc1 (stereo not given)	.	4.2	6.6	0.8	-5.2%
OC(CC#CCN1CCOCC1)(c1ccccc1)c1ccccc1	.	.	-2.3	1.1	.
COc1ccc(NS(=O)(=O)c2ccc3c(c2)NC(=O)CO3)c(OC)c1	.	.	8.3	-5.3	.
COc1cccc(-c2noc(-c3cccnc3)n2)c1	8.4	-35.1	4.0	3.0	2.1%
COc1cccc(-n2c(=O)n(Cc3ccccc3)c(=O)c3[nH]cnc32)c1C	.	.	4.5	-1.5	0.1%
O=C(Nc1ccc(S(=O)(=O)Nc2ccccn2)cc1)C(F)(F)F	3.9	.	-3.2	-1.0	5.7%
COc1ccc(NC(=O)CSc2nnc(-c3cc(C)[nH]n3)n2N)cc1	.	.	10.4	-0.8	.
O=C(Nc1ccc(CN2CCOCC2)cc1)c1ccco1	.	.	-1.2	-0.7	.
Cc1ccc(Nc2n[nH]c(C)c2[N+](=O)[O-])c(C)c1	2.9	-23.9	11.1	5.2	-2.3%
O=C(c1cnn2ccccc12)N1CCCc2ccccc21	3.0	-38.7	6.4	1.8	7.7%	Arbovirus inh repeat=2.9
COC(=O)c1ccc(NC(=S)N2CCN(Cc3ccccc3)CC2)cc1	13.1	-17.8	9.7	1.4	0.7%
Cc1ccc(CNC(=O)C2CC(=O)N(CCC(C)C)C2)cc1 (stereo not given)	8.7	.	0.6	0.2	4.5%
CCCOc1ccc(C(O)(CCN2CCCCC2)c2ccccc2OC)cc1 (stereo not given)	.	.	-0.6	0.4	.
O=C(NC1CC1)c1sc2cc([N+](=O)[O-])ccc2c1Cl	-1.3	-22.0	4.4	0.0	2.9%

The final four entries of the part above come first, to join the parts.
SMILES	Arbovirus inh	YopH PTP inh	Mtb bLac sens	RecA intein inh	Mtb H37Rv	others
COC(=O)c1ccc(NC(=S)N2CCN(Cc3ccccc3)CC2)cc1	13.1	-17.8	9.7	1.4	0.7%
Cc1ccc(CNC(=O)C2CC(=O)N(CCC(C)C)C2)cc1 (stereo not given)	8.7	.	0.6	0.2	4.5%
CCCOc1ccc(C(O)(CCN2CCCCC2)c2ccccc2OC)cc1 (stereo not given)	.	.	-0.6	0.4	.
O=C(NC1CC1)c1sc2cc([N+](=O)[O-])ccc2c1Cl	-1.3	-22.0	4.4	0.0	2.9%
CC(CC(C)C(=O)Nc1ccccc1C(C)(C)C)C(=O)O (stereo not given)	-3.3	-34.6	-3.8	7.9	1.0%
Cc1ccc(-n2c(N)c(S(=O)(=O)c3ccccc3)c3nc4ccccc4nc32)cc1	2.2	.	1.8	0.8	11.8%
CCCNC(=O)c1cc(-c2ccco2)on1	-6.5	-8.0	-3.3	0.0	-2.5%
O=C(c1ccccc1)c1cccs1	2.6	.	-1.3	0.9	0.4%
Cc1ccc2c(C)nc(Nc3nc(CSc4nnc(C)s4)cc(=O)[nH]3)nc2c1	-19.5	-2.4	98.3	-1.6	?
COc1ccc(-c2cc(=Nc3ccccc3)c3cc(C)ccc3o2)cc1	17.3	34.3	15.4	13.7	17.7%
Cc1cccc(CC(=O)Nc2ccon2)c1	.	.	-5.8	2.0	.
Cc1nc2ncnn2c(C)c1C/C=C/c1ccccc1	4.6	.	-5.5	1.0	-6.6%
N#CCSc1nnc(N)s1	4.0	-25.3	-5.3	-5.4	8.5%
COc1ccc(Cl)cc1NC(=O)CC1S/C(=N/N=C2CCCCCC2)NC1=O (stereo not given)	.	.	27.2	-1.1	.
Cc1ccc(C(=O)CSc2nnnn2Cc2ccccc2)cc1C	.	.	-0.7	-3.3	7.4%
COC(=O)CCC(=O)Nc1ccc(NC(=O)CCC(=O)OC)cc1	-0.8	-45.6	-3.4	-1.9	0.2%	Arbovirus inh repeat=-1.6
O=c1oc2ccccc2c2c1ncn2C1CCCCC1	-1.4	8.8	-6.0	2.1	-5.4%
Cc1n[nH]c(=S)n(/N=C/c2cccc([N+](=O)[O-])c2)c1=O	.	.	-1.5	-1.4	-9.4%
O=C(CN1CCCCCC1)NN(Cc1ccccc1)c1ccccc1	.	.	0.7	-0.5	.
Cc1ccccc1OCC(=O)NNC(=O)Nc1ccc(Cl)cc1	-12.8	-23.8	-7.2	-1.5	-2.5%
CC(=O)Nc1ccc(NC(=O)CCNC(=O)c2ccccc2Cl)cc1	.	.	-1.0	-0.2	.
Clc1ccc(CO/N=C/c2cccs2)cc1	.	.	-3.2	-0.9	3.5%
CC1=C(C(=O)Nc2ccc(C)cc2C)C(c2cccc([N+](=O)[O-])c2)n2nc(C(=O)OC(C)C)nc2N1 (stereo not given)	0.0	-14.4	-4.7	-6.6	0.1%
CS(=O)(=O)N1N=C(c2ccc(Br)cc2)CC1c1ccc2c(c1)OCO2 (stereo not given)	-2.0	-49.5	3.0	0.6	-0.9%
O=C(CCl)c1ccc2c(c1)CCN2C(=O)C1CC1	-23.7	.	100.1	60.4*	-4.5%
Cc1cccc(C(=O)NCCCNC(=O)c2cccnc2)c1	.	.	-2.7	-0.8	.
NCCN1CCN(CCN)CC1	20.6	-26.6	.	-1.1	-1.0%
Cc1cccc(N2CCN(C(=O)CCCCCn3c(=S)[nH]c4ccc(N5CCOCC5)cc4c3=O)CC2)c1C	.	.	7.4	0.6	.
CCOC(=O)c1cc(CC)sc1NC(=O)c1ccc(N2C(=O)CCC2=O)cc1	10.6	-32.2	-2.4	-0.1	-1.7%
C=CCn1c(-c2cc3c(s2)CCC(CC)C3)n[nH]c1=S (stereo not given)	3.6	.	-2.6	-0.2	6.0%
O=C(O)CCC(=O)Nc1ccccc1C(=O)N1CCN(c2ccc(Cl)cc2)CC1	4.1	.	-11.3	1.5	-3.2%
CCCc1oc(C(=O)O)cc1CN1CCCC1	11.0	-3.6	-2.9	1.2	5.4%
Cc1ccc(C)c(C(=O)N2CCN(c3ncccn3)CC2)c1	.	.	-1.9	-1.1	.
Cc1ccc(-c2nc3ccccc3c(=O)n2-c2ccc(Br)cn2)cc1	2.2	.	37.2	2.8	8.8%

Entries shown so far with a halogen, in the order listed:
SMILES	Arbovirus inh	YopH PTP inh	Mtb bLac sens	RecA intein inh	Mtb H37Rv	others
O=C1c2cccnc2C(Nc2ccc(F)c(Cl)c2)N1Cc1cccs1 (stereo not given)	-2.7	.	3.3	7.4	10.1%
COc1ccc(C(=O)NCC(=O)OCc2ccc(F)cc2)cc1	-3.8	.	1.9	-1.4	-9.3%
COc1ccc(N(C(=O)c2cnccn2)C(C(=O)NC2CCCCC2)c2ccc(Cl)cc2)cc1 (stereo not given)	.	4.2	6.6	0.8	-5.2%
O=C(Nc1ccc(S(=O)(=O)Nc2ccccn2)cc1)C(F)(F)F	3.9	.	-3.2	-1.0	5.7%
O=C(NC1CC1)c1sc2cc([N+](=O)[O-])ccc2c1Cl	-1.3	-22.0	4.4	0.0	2.9%
COc1ccc(Cl)cc1NC(=O)CC1S/C(=N/N=C2CCCCCC2)NC1=O (stereo not given)	.	.	27.2	-1.1	.
Cc1ccccc1OCC(=O)NNC(=O)Nc1ccc(Cl)cc1	-12.8	-23.8	-7.2	-1.5	-2.5%
CC(=O)Nc1ccc(NC(=O)CCNC(=O)c2ccccc2Cl)cc1	.	.	-1.0	-0.2	.
Clc1ccc(CO/N=C/c2cccs2)cc1	.	.	-3.2	-0.9	3.5%
CS(=O)(=O)N1N=C(c2ccc(Br)cc2)CC1c1ccc2c(c1)OCO2 (stereo not given)	-2.0	-49.5	3.0	0.6	-0.9%
O=C(CCl)c1ccc2c(c1)CCN2C(=O)C1CC1	-23.7	.	100.1	60.4*	-4.5%
O=C(O)CCC(=O)Nc1ccccc1C(=O)N1CCN(c2ccc(Cl)cc2)CC1	4.1	.	-11.3	1.5	-3.2%
Cc1ccc(-c2nc3ccccc3c(=O)n2-c2ccc(Br)cn2)cc1	2.2	.	37.2	2.8	8.8%

Screening results as filed in PubChem BioAssay.
